Compound activity deposited in PubChem by several laboratories.
Sa RN4220 lethal – kills Staphylococcus aureus RN4220 | S. aureus RN4220 growth, OD600, 16 h | inhibition, % (no concentration beside the values) | 330,000 tested, 0.33% active;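 active means z-score of -3 or lower and OD600 up to 0.18 on both plates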;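 further: plate controls were untreated cells for no effect and reference antibiotic for full effect; stock transfer was 100 nL into about 80 µL; one replicate is shown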
Mtb hypoxia inh – inhibitors of hypoxia-regulated fluorescent reporter in Mycobacterium tuberculosis | M. tuberculosis hypoxia-regulated fluorescent reporter, fluorescence | fluorescence inhibition, % (test concentration not listed) | 300,000 tested, 0.1% active | AID 1159583;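 active means 35 to 45% if threefold the growth effect, above 45% if 1.5-fold the growth effect; inactive means the rest, general growth blockers included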;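 further: wells of about 50 µL received 100 nL stock; 0% = vehicle wells and 100% = reference inhibitor wells; whole bacteria with a GFP reporter of the hypoxia response; strong numbers were not always called active; many hits fall short of the cut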
Sa ugtP lethal – kills S. aureus RN4220 lacking UgtP. growth inhibition, % (no concentration beside the values). AID 1259309. S. aureus RN4220 ugtP deletion, OD600 growth, 16 h; some inactives read as strong as hits. 330,000 tested, 0.54% active;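 active means z-score under -3 and OD600 up to 0.15 on both plates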;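 further: plate controls were untreated wells for no effect and antibiotic for full effect; wells of about 80 µL received 100 nL stock; the first replicate is given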
PrP UTR inh – inhibition of PrP 5' UTR reporter expression; cell-based PrP 5' UTR mRNA reporter, plate reader; inhibition, % (no concentration beside the values); 340,000 tested, 0.35% active; AID 488862;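 active means every replicate at 50% or more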;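 further: 0 = median of the neutral control wells; tested in H4 reporter cells; numbers are from one replicate; inactives centre near -14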
BJeLR lethal – kills HRASV12-expressing BJeLR cells. 300,000 tested, 0.17% active. BJeLR (HRASV12) viability, CellTiter-Glo ATP luminescence, 48 h; reference of the scale not given here. inhibition, % (concentration not given with the values);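 active means replicate mean above 50%; inconclusive means above 50% but judged a plate artefact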;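 further: 50 nL library stock added to about 25 µL; numbers are from one replicate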
Bead autofluor – flagged as autofluorescent in microsphere protease counterscreen. compound autofluorescence counterscreen, microsphere flow cytometry; stronger effect = higher value. fluorescence intensity (test concentration not listed). 360,000 tested, 3.1% active;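 active means at least 3 SD above the mean of all compounds, about 16000 in these data; inconclusive means too few beads counted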;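 further: 100 nL of 1 mM stock went into each well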
Mtb hypoxia inh growth – also measured in Mtb hypoxia inh; calls as there; growth inhibition, %; measured here: M. tuberculosis growth (absorbance);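 0% = vehicle and 100% = reference antibiotic; read after six days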
Numbers without * were called inactive; ? = inconclusive; nt = no result given.

SMILES	Sa RN4220 lethal	Mtb hypoxia inh	Mtb hypoxia inh growth	Sa ugtP lethal	PrP UTR inh	BJeLR lethal	Bead autofluor
CC(=O)c1ccc(-c2ccc(/C=C(/Sc3n[nH]c(C)n3)C(=O)O)o2)cc1	5.7	2	-17	4	-14	1	5143
CCN(CC)S(=O)(=O)c1ccc(O)c(C(=O)OCC(=O)N(C)Cc2ccccc2)c1	2.8	nt	nt	-3	-18	-6	2730
CCOc1ccc(C(=O)N(CC)CC(=O)Nc2ccc3c(c2)OCCO3)cc1OCC	1.2	2	0	2	-4	nt	?
CCC1CCCCN1C(=S)NC(=O)c1ccco1 (stereo not drawn)	10	11	9	5	-5	nt	3681
O=C(CN1CCNCC1)Nc1ccc(Oc2ccccc2)cc1	-0.3	5	5	2	nt	-3	9717
COc1ccccc1N1CCN(C(=O)CSc2ccccc2)CC1	1.2	nt	nt	12	-54	0	2770
COc1ccc(/C(O)=C2/C(=O)C(=O)N(c3ccccn3)C2c2ccc(OC)c(OC)c2)cc1 (stereo not drawn)	0.5	-2	-9	1	-20	1	5533
COc1cc(/C=C(\C#N)C(=O)Nc2ccccc2C(=O)O)cc(Cl)c1OC	0.0	-5	6	13	-14	8	4399
O=C1CSC2(N1)C1CC3CC(C1)CC2C3 (stereo not drawn)	-2.4	-1	1	-14	-37	15	4263
CC1CC(C)CN(C(=S)SCc2nc(N)nc(Nc3ccccc3)n2)C1 (stereo not drawn)	1.3	4	-2	-28	-8	-10	5788
O=C(NCCCN1CCCC1=O)c1cc(-c2ccc3c(c2)OCO3)nc2ccccc12	-6.5	11	-1	4	-13	-4	4454
O=C(Nc1ncc(Cc2ccccc2Cl)s1)C1CCCO1 (stereo not drawn)	-0.8	16	2	-1	-86	1	5621
Oc1ccc2ccccc2c1/C=N/c1nccs1	nt	nt	nt	nt	-19	5	9384
CC(=O)Nc1ccc(S(=O)(=O)Nc2cccn(Cc3ccc(C)cc3)c2=O)cc1	2.4	3	-2	10	-19	-5	2789
O=C(CSc1nc2ncccc2[nH]1)NCCc1ccccc1	3.9	3	6	-5	-17	3	5457
CCN(C[C@H]1N[C@@](Cc2ccccc2)(C(=O)OC)[C@H]2C(=O)N(Cc3ccccc3)C(=O)[C@@H]12)S(=O)(=O)c1ccc(-c2ccccc2)cc1	8.0	-14	6	-5	-14	nt	4163
COC(=O)c1cnn(-c2ccc(F)cc2F)c1C=NNC(N)=S	3.4	1	11	-1	nt	nt	nt
O=C(NC(=S)NCc1cccnc1)c1cccc2ccccc12	2.6	-8	-3	12	-3	3	3561
CCOc1ccc(NC(=O)C2CCCN(S(=O)(=O)c3c(C)n[nH]c3C)C2)cc1 (stereo not drawn)	1.4	nt	nt	-4	-15	-2	6924
CCO/C=C1\SC(=S)N(c2ccc(Cl)cc2)C1=O	1.0	2	-8	1	-14	2	nt
CSc1nnc(NC(=O)c2nc(S(=O)(=O)Cc3ccc(C)cc3)ncc2Cl)s1	nt	nt	nt	nt	6	13	5889
CCOC(=O)N1CCC(NC(=O)CNS(=O)(=O)c2ccc(Br)s2)CC1	5.0	7	8	7	-30	-6	11158
CCC(=O)Nc1nnc(/C=C/c2ccc(OC)cc2)s1	-4.0	-1	-2	-4	-140	-7	3595
COc1ccc(OC)c(-n2c(=S)[nH]c3cc(C(=O)N4CCCCC4)ccc3c2=O)c1	1.9	-4	-9	1	-11	1	4130
COCCNC(=O)c1ccc(C(=O)C(=O)c2ccccc2)cc1	3.1	4	7	5	-23	-16	2633
The results go on:
SMILES	Sa RN4220 lethal	Mtb hypoxia inh	Mtb hypoxia inh growth	Sa ugtP lethal	PrP UTR inh	BJeLR lethal	Bead autofluor
CSc1nc2c(c(=O)[nH]c(=O)n2C)n1CCCc1ccccc1	-2.6	0	-8	-1	-20	5	2841
COc1cccc(-c2cccc(NC(=O)C3CCN(Cc4ccc(C)o4)CC3)c2)c1	2.1	10	7	5	-13	7	5101
CN(C(=O)Nc1ccc(Cl)cc1Cl)[C@H]1c2cc(Br)ccc2OC[C@H]1CO	-1.8	7	5	-8	17	-1	10495
Cc1cc(N2C(=O)C(O)=C(C(=O)c3cc4ccccc4o3)C2c2ccc(Cl)cc2)no1 (stereo not drawn)	nt	nt	nt	nt	-7	-1	5670
Cn1c(CCC(=O)O)nc2cc(S(=O)(=O)N3CCCC3)ccc21	3.6	12	7	1	-4	nt	4244
O=C(NCC(=O)N1CCOCC1)c1ccc(Cl)c(Cl)c1	2.7	0	5	3	-18	nt	3889
COc1ccc(-c2nc3c(c(SCC(=O)N4CCOCC4)n2)COC(C)(C)C3)cc1	1.9	7	-1	8	-6	-3	15881
CC1CCCC(C)N1/N=C/c1ccc(N(C)C)cc1 (stereo not drawn)	nt	nt	nt	nt	-19	3	4354
NS(=O)(=O)c1cccc(NC(=O)c2cccc(Oc3ccccc3)c2)c1	-3.1	-3	4	8	-12	-2	3649
COc1ccc(CNC(=O)[C@H](Cc2ccccc2)NC(=O)C2CCNCC2)cc1	3.0	-11	-8	2	2	-7	4415
Cc1ccc2c(c1)NC(=O)C(CC(=O)NCCCN1CCc3ccccc3C1)O2 (stereo not drawn)	4.0	nt	nt	10	-17	-1	6434
COc1ccc(NC(=O)Cn2c(C)cc(=O)c3ccccc32)cc1	1.1	nt	nt	-1	-10	4	2136
Brc1ccc(Oc2nsnc2N2CCOCC2)cc1	9.6	11	5	13	7	0	?
O=C(NC(=S)Nc1ccccc1)c1cccs1	4.1	7	10	7	-57	0	3594
COc1ccc(-c2nnc(SCC(N)=O)n2N)cc1	9.0	6	3	-5	-20	9	10349
CCOc1ccc(Nc2nc(CC(=O)OC)cc(=O)[nH]2)cc1	-1.0	4	-6	-4	-11	-5	4472
COc1ccc(-c2nc(NC(=O)c3ccc(OCC(=O)Nc4ccc(F)cc4)c(OC)c3)sc2C)cc1	9.8	6	1	-14	0	-10	2141
Cc1csc(=O)n1CCC(=O)OCC(=O)Nc1ncc(Cl)cc1Cl	-0.5	1	2	-5	-16	-6	6780
Cc1ccc(S(=O)(=O)N2CCN(CC(O)c3ccccc3)CC2)cc1 (stereo not drawn)	0.9	-1	-4	2	-7	-1	4434
O=C(CN1C(=O)c2ccccc2C1=O)Nc1ccccc1C(=O)NC1CCCCC1	5.1	15	3	2	-16	5	13160
Cc1oc2ccc(OCc3ccccc3Cl)cc2c1C(=O)O	15	-9	0	-19	-20	1	3945
O=C(NCCC1=CCCCC1)c1ccc(CN2CCOCC2)cc1	-11	nt	nt	6	-15	10	3861
O=C(CN(C(=O)c1csnn1)c1ccc(F)c(Cl)c1)NC1CCCCC1	0.6	3	0	7	-11	-3	5078
C=C(C)CC1(NC(C)c2ccccc2)CCCCC1 (stereo not drawn)	6.6	4	4	14	-28	9	9035
Cc1ccn(CCC(=O)NC2CC(C)(C)Cc3c2cnn3-c2ccccc2C)n1 (stereo not drawn)	-1.5	-2	1	-4	-14	0	5384
(list continues)
SMILES	Sa RN4220 lethal	Mtb hypoxia inh	Mtb hypoxia inh growth	Sa ugtP lethal	PrP UTR inh	BJeLR lethal	Bead autofluor
Cc1ccc(C)c(C(=O)CC2(O)C(=O)Nc3ccccc32)c1 (stereo not drawn)	7.1	9	4	-1	5	4	3378
CS(=O)(=O)N(CC(=O)N1CCCC1)c1ccc(OCc2ccccc2)cc1	2.8	4	13	0	-17	7	8155
O=C(NCCS(=O)(=O)NCc1ccc(Cl)cc1)c1ccccc1	1.0	-8	12	-2	-2	3	nt
CCn1c(N2CCN(S(=O)(=O)c3ccc(F)cc3)CC2)nc2ccccc21	nt	nt	nt	nt	-2	18	3219
COc1ccc(NS(=O)(=O)c2cccc(C(=O)N3CCCC(C)C3)c2)cc1 (stereo not drawn)	5.5	7	6	1	-4	2	?
COC(=O)C1=C(C)NC(=O)/C1=C\c1cc(C)n(-c2ccccc2F)c1C	2.2	-8	11	-4	-13	-8	3094
Cc1cc(=O)oc2cc(OC(C)C(=O)Nc3ccc(C(N)=O)cc3)ccc12 (stereo not drawn)	3.6	9	-9	15	-10	nt	5992
O=C(Cc1ccc(Cl)cc1)Nc1ccccc1N1CCOCC1	-0.1	12	10	-6	-8	-11	3060
Cc1ccc(S(=O)(=O)/N=C(/NC(=S)Nc2ccccc2)c2ccccc2)cc1	-1.8	11	9	-21	-158	2	3150
Clc1ccccc1Cn1nnc2c(NCCN3CCOCC3)ncnc21	1.8	4	6	7	-33	-1	11776
CCC1(C)Cc2c(sc3[nH]c(=S)[nH]c(=S)c23)CO1 (stereo not drawn)	nt	nt	nt	nt	-21	-9	4330
Cc1ccc(S(=O)(=O)c2cn(C)c3cc(N4CCN(C)CC4)c(F)cc3c2=O)cc1	2.4	6	12	0	3	-3	5714
O=C(CC1S/C(=N/N=C/c2ccco2)NC1=O)Nc1ccccc1 (stereo not drawn)	nt	nt	nt	nt	-21	2	3868
Cc1ccc(-c2nnn(CC(=O)N3CCCc4ccccc43)n2)cc1	0.0	-3	15	-9	-13	0	3929
Nc1nc2n(n1)C(c1ccco1)CC(c1ccc(Cl)c(Cl)c1)N2 (stereo not drawn)	1.3	7	0	4	-1	-1	14667
Nc1ccccc1N=Cc1ccc(-c2cccc(Cl)c2)o1	nt	nt	nt	nt	-86	4	5196
Cc1cccc(OCCCC(=O)Nc2ccc(S(=O)(=O)Nc3nccs3)cc2)c1C	-3.3	21	35	5	-16	15	6511
CC(=O)Nc1ccc(NC(=O)CSCc2ccccc2Cl)cc1	4.8	-4	0	-2	-25	4	3331
CCC(C)(C)NC(=O)c1ccc(S(=O)(=O)N2CCCCCC2)cc1	2.6	-4	7	14	-31	4	3363
COc1cccc(NC(=O)CN(C)C(=O)c2c(C)nn(Cc3ccc(C)cc3)c2Cl)c1	2.6	7	5	5	-1	-7	nt
Cn1nc(-c2ccc(Cl)cc2)c2cc(C(=O)NCCCN3CCCC3)sc21	-3.8	nt	nt	4	4	46	4775
Cc1[nH]c2ccccc2c1SCc1n[nH]c(=S)n1C	1.0	8	1	0	3	-2	3243
COc1ccccc1NS(=O)(=O)c1ccc2oc(SC(C)C(=O)N3CCNC3=O)nc2c1 (stereo not drawn)	6.2	5	3	2	4	nt	2739
Cc1ccc(C=c2sc3n(c2=O)CCCN=3)o1	6.9	8	7	-14	nt	nt	nt
Cc1ccc2c(c1)N(C(=O)CCC(=O)N1CCN(c3cccc(C)c3C)CC1)CCO2	-13	-3	7	1	-18	-2	6508

Arranged by length of the SMILES (falling): part of the list above
SMILES	Sa RN4220 lethal	Mtb hypoxia inh	Mtb hypoxia inh growth	Sa ugtP lethal	PrP UTR inh	BJeLR lethal	Bead autofluor
COc1ccc(OC)c(-n2c(=S)[nH]c3cc(C(=O)N4CCCCC4)ccc3c2=O)c1	1.9	-4	-9	1	-11	1	4130
CN(C(=O)Nc1ccc(Cl)cc1Cl)[C@H]1c2cc(Br)ccc2OC[C@H]1CO	-1.8	7	5	-8	17	-1	10495
O=C(NCCCN1CCCC1=O)c1cc(-c2ccc3c(c2)OCO3)nc2ccccc12	-6.5	11	-1	4	-13	-4	4454
Cc1ccn(CCC(=O)NC2CC(C)(C)Cc3c2cnn3-c2ccccc2C)n1 (stereo not drawn)	-1.5	-2	1	-4	-14	0	5384
Cc1ccc(C=c2sc3n(c2=O)CCCN=3)o1	6.9	8	7	-14	nt	nt	nt

Other entries follow:
SMILES	Sa RN4220 lethal	Mtb hypoxia inh	Mtb hypoxia inh growth	Sa ugtP lethal	PrP UTR inh	BJeLR lethal	Bead autofluor
C[n+]1c(/C=C/c2ccc3c(c2)OCO3)ccc2ccccc21	3.8	0	2	3	6	12	3675
CN(C)c1ccc(C(=S)N2CCCC2)cc1Br	1.9	11	10	20	-9	-3	3813
COc1ccc(NC(=O)COC(=O)c2cc3c(s2)CCC3)cc1	-2.4	15	39	4	-19	nt	3869
O=C1/C(=C2/NCCN2C2CC(=O)N(c3ccccc3)C2=O)CC/C1=C\c1ccccc1 (stereo not drawn)	2.9	7	-7	2	-8	-15	2587
COc1ccccc1NC(=O)NCC1(N(C)C)CCCCC1	-1.2	1	-7	11	-12	1	6264
O=C(CN1CCOCC1)N1CCCc2ccccc21	3.4	5	-10	7	-8	-5	4574
CC(Cl)C(=O)Nc1c2c(nn1-c1ccccc1)CSC2 (stereo not drawn)	12	-3	-8	6	-2	-5	4407
O=C(NNC(=O)c1ccc2ccccc2c1O)NC1CCCCC1	0.8	9	5	11	-17	5	4758
CCOC(=O)/C(C#N)=C1/C=CN(Cc2ccccc2)C=N1	2.6	-1	1	-2	-32	7	9778
CN(c1ccccc1C(=O)Nc1cccc(Cl)c1Cl)S(C)(=O)=O	1.8	4	9	1	-13	4	22508*
